VACV Venus inh: inhibitors of vaccinia virus (Venus reporter). Vaccinia virus Venus reporter expression, fluorescence. Potency, µM (highest dose often 36.5 µM), without a hit: top-dose activity change, negative = inhibition, hits mostly inhibitors. 330,000 compounds, 0.46% hits; active means well fitted inhibition curve with a large enough effect; inconclusive means small, poorly fitted or top-dose-only effect; inactive means no such curve, though single readings can be large or run the other way; tested in A549 cells; note: nearly all actives have a fitted effect of over 30% in size; inactives centre near -10
Vaccinia mCherry: inhibitors of vaccinia virus infection (mCherry reporter signal). Potency, µM (doses to about 36.5 µM), inactives show at the highest dose activity change, negative = inhibition, hits mostly inhibitors. Vaccinia virus mCherry reporter infection, fluorescence; about a quarter of the inactives have no number. 310,000 compounds, 0.63% hits; active = well fitted inhibition curve with a large enough effect; inconclusive = small, poorly fitted or top-dose-only effect; inactive = no such curve, though single readings can be large or run the other way; tested in A549 cells; note: nearly all actives have a fitted effect of over 35% in size; inactives centre near -10
* hit, by the source's call; i = inactive; ? = inconclusive; . = not tested or not shown; [ ] = remark or other dose. % is set by controls: 0 for no effect and ±100 for the full control effect; potency is the fitted concentration of half-maximal effect.

SMILES | VACV Venus inh | Vaccinia mCherry
COCCn1ccc2c(OCC(=O)NCCc3ccc(OC)c(OC)c3)cccc2c1=O | -11% | -1%
O=C(NCCOc1ccccc1)C1Nc2ccc(OC(F)(F)F)cc2C2C=CCC12 (stereo not given) | ? | -27%
Cn1nccc1NC(=O)Nc1ccc(OC(F)(F)F)cc1 | -10% | i
C/C(=N\N)c1c(-c2ccccc2)c2cc(Br)ccc2[nH]c1=O | -12% | -13%
Nc1cc(N)c(OCC(F)(F)F)cc1OCC(F)(F)F | 4% | .
CS(=O)(=O)Nc1cccc(C(=O)CC2(O)C(=O)Nc3ccc(Br)cc32)c1 (stereo not given) | -17% | -8%
Cc1ccc(S(=O)(=O)CCC(=O)OCC(=O)c2c(C)[nH]c3ccccc23)cc1 | -7% | -8%
O=c1[nH]cnc2c1C(c1ccc(Cl)cc1)c1c(nc[nH]c1=O)O2 | -7% | -10%
Cc1ccc(/C=C2/SC(=Nc3ccc(F)cc3)NC2=O)s1 | -9% | i
CCOC(=O)CSc1nnc2c3ccccc3n(C)c2n1 | 1% | -9%
CCN(CC)Cc1cc(Oc2ccc(O)c(CN(CC)CC)c2)ccc1O | -20% | ?
COc1cc(NC(=S)Nc2cccnc2)cc(OC)c1 | 1% | -13%
O=C(O)COc1ccccc1/C=N/NC(=O)/C(=C\c1ccc2c(c1)OCO2)NC(=O)c1ccccc1 | -4% | -23%
CCOc1ccccc1C(=O)Nc1nnc(CC)s1 | 2% | 4%
Cc1ccc(N2CCN(C(=O)c3ccccc3Br)CC2)c(C)c1 | -7% | .
O=C(CN1CCOCC1)Nc1ccc(S(=O)(=O)NC2CCCCC2)cc1 | -12% | -18%
COc1ccc(C2OC34CCCCC3C(C#N)(C#N)C2(C#N)C(=N)O4)cc1 (stereo not given) | -11% | .
COc1ccc(C2C(O)C(c3c[nH]c4ccccc34)=NN2C(=O)CCl)cc1 (stereo not given) | ? | ?
C[C@@H](NC(=O)c1nc[nH]c1C(=O)N1CCN(c2ccccc2)CC1)c1ccccc1 | -15% | ?
O=C1/C(=C\c2cccs2)SC(=S)N1C1CCS(=O)(=O)C1 (stereo not given) | -8% | -8%
CCOC(=O)c1cn2nc(Oc3cccc(F)c3)ccc2n1 | 6% | i
Cn1c(SCC(=O)Nc2nc3ccccc3s2)ncc(C(=O)Nc2ccc(Cl)cc2)c1=O | -12% | -13%
CCOc1ccc(N2C(=O)CC(NCc3ccc(S(N)(=O)=O)cc3)C2=O)cc1 (stereo not given) | -13% | i
CCN(C[C@H]1N[C@@](CC)(C(=O)OC)[C@H]2C(=O)N(Cc3ccccc3)C(=O)[C@@H]12)S(=O)(=O)c1ccc(-c2ccccc2)cc1 | -6% | -6%
O=C(CCSCc1ccccc1Cl)N1CCN(c2cccc(Cl)c2)CC1 | -8% | -9%
Next compounds:
SMILES | VACV Venus inh | Vaccinia mCherry
O=C(CSc1ccc2nnc(-c3ccc(Cl)cc3)n2n1)N1CCCC1 | -6% | -10%
COc1ccc(CN(Cc2cccn2C)C(=O)c2cc3cc(OC)ccc3[nH]2)cc1 | -22% | -5%
CC(C)(C)OC(=O)N1CCC(C(=O)Nc2cccc(C(=O)NC3CC3)c2)CC1 | 9% | 29%
Cc1ccccc1S(=O)(=O)NC(=O)C1(C)CCN1C(=O)CCc1ccc(Cl)cc1Cl (stereo not given) | 11% | -3%
O=C(NC1CCS(=O)(=O)C1)c1cccs1 (stereo not given) | 14% | i
O=C(CN1C(=O)c2ccccc2C1=O)Nc1cc([N+](=O)[O-])ccc1O | -9% | i
C#CCOCCOCCOCCNc1nc(N2CCN(C(=O)[C@H]([C@@H](C)CC)n3cc(CCC(=O)O)nn3)CC2)nc(N2CCN(C(=O)[C@H](Cc3ccc(O)cc3)n3cc(CCO)nn3)CC2)n1 | -4% | -15%
CC(=O)OCC(=O)[C@@]1(O)CC[C@H]2[C@@H]3CCC4=CC(=O)C=C[C@]4(C)[C@@]3(Cl)[C@@H](Cl)C[C@@]21C | -9% | i
Cc1ccsc1CNC(=O)C1(C)CCCN1CC(C)C (stereo not given) | -3% | i
O=C(CCCCCNc1nc(=S)[nH]c2ccccc12)NCCc1c[nH]c2ccccc12 | -18% | -15%
Cc1ccc(S(=O)(=O)NCC2CCC(C(=O)NCc3ccc4c(c3)OCO4)CC2)cc1 (stereo not given) | -19% | -10%
COc1ccccc1OCc1nc(-c2cccc(C)c2)no1 | -14% | -7%
O=C(OCc1ccc(Br)cc1)c1cc([N+](=O)[O-])ccc1N1CCOCC1 | ? | -26%
COc1ccc(OC)c(Cc2nnc(CCC(=O)NC(C3CC3)C3CC3)o2)c1 | -9% | i
COCCNC(=O)/C(C#N)=C/c1ccc(N2CCOCC2)o1 | -20% | -20%
COc1ccc(CCNC(=O)c2c(C)oc3ncn(CC(C)C)c(=O)c23)c(OC)c1 | -5% | -14%
CCOC(=O)c1ccc(CN2CCCC(C)(C(=O)NCCOC)C2)cc1 (stereo not given) | -7% | -4%
CCCCCCCCCCn1ccc(=N)cc1 | ? | ?
COc1cccc(CNC(=O)CCn2c(=O)c3cccn3c3cccnc32)c1 | -4%[7.34 µM] | -11%
O=C(Cn1cnc2c(cnn2-c2ccccc2)c1=O)Nc1cc(S(=O)(=O)N2CCOCC2)ccc1Cl | -28% | -2%
CN1CCN(c2nc3c(=O)[nH]c(N)nc3n2C2OC(CO)C(O)C2O)CC1 (stereo not given) | -11% | 4%
COc1ccccc1-c1nn(-c2ccccc2)cc1C(=O)N1CCN(C(=O)c2ccco2)CC1 | ? | -3%
CCOc1ccc(NC(=S)NNc2ccnc3cc(Cl)ccc23)cc1 | -12% | -4%
Nc1cc(N)[nH]c(=S)n1 | -13% | 29%
C[C@@H]1C[C@@H]2OC(=O)[C@]3(C)[C@H]2[C@@H](OC3(C)O)[C@]2(C)C(=O)C=C[C@H]12 (stereo not given in full) | ? | -13%

2 entries from above, set out differently.
mol	VACV Venus inh	Vaccinia mCherry
Cc1ccccc1S(=O)(=O)NC(=O)C1(C)CCN1C(=O)CCc1ccc(Cl)cc1Cl (stereo not given)	11%	-3%
O=C(NC1CCS(=O)(=O)C1)c1cccs1 (stereo not given)	14%	i

The listing continues:
SMILES | VACV Venus inh | Vaccinia mCherry
Cc1cccc(-n2c(C)nc3ccccc3c2=O)n1 | -12% | -18%
Cc1ccc(NC(=O)C/C(N)=N/OC(=O)Nc2ccc(C)c(Cl)c2)cc1 | -9% | i
O=C(N1CCCCC1)N1CCN(S(=O)(=O)c2ccc(Cl)cc2)CC1 | -5% | -11%
Cc1ccc(-c2onc(C)c2C)cc1S(=O)(=O)N1CCCCC1 | ? | -25%
ClCCN(CCCl)c1ccc(C=Cc2ccncn2)cc1 | 3% | -3%
Cc1cc(Br)ccc1NC(=O)Cn1cnc2sc(C)c(S(=O)(=O)N3CCN(C)CC3)c2c1=O | -12% | i
C/C(CC(=O)Nc1cccc2c1CCCC2)=N\NC(=O)c1cccc2ccccc12 | -15% | -28%
O=C(CSc1ncnc2c1cnn2-c1ccccc1)Nc1ccc2c(c1)OCO2 | -25% | -2%
Cc1ccc(NC2=NC(c3ccc(F)cc3)n3c(nc(C)cc3=O)N2)cc1 (stereo not given) | -10%[7.34 µM] | -3%[7.34 µM]
O=C1c2ccccc2C(=O)N1Cc1cc(-c2ccccc2Cl)no1 | -16% | i
Cc1ccc(S(=O)(=O)CCC(=O)Nc2cccc([N+](=O)[O-])c2)cc1 | -23% | -21%
Cc1ccc(C)c(N2CCN(C(=O)c3csc4ccccc34)CC2)c1 | -26% | -15%
CC(C)c1nc(SCC(=O)Nc2nccs2)c2ccccc2n1 | -19% | 27%
Cc1ccc(S(=O)(=O)N2C[C@H]3N(C(=O)OC(C)C)N(C(=O)OC(C)C)C[C@H](OC(=O)NC4CC4)[C@@]3(O)C2)cc1 | -16% | -12%
Cc1ccc(SCCNC(=O)/C=C/c2ccc(Cl)cc2)cc1 | -8% | -8%
O=c1[nH]c(=S)[nH]c2n[nH]nc12 | -5% | -5%
CCc1nc2ccc(C(=O)N3CCN(c4ccccc4)CC3)cn2c1N(CCC(C)C)CCN(C)C | -4% | 10%
Cc1[nH]c2ccccc2c1C(=O)C(=O)N1CC=C(c2ccccc2)CC1 | -13% | ?
COC(=O)c1sc(NC(=O)C2c3ccccc3Oc3ccccc32)c(C(=O)OC)c1C | -2% | -2%
COc1ccc(N2CC(O)=C(c3nc(-c4ccc(F)cc4)cs3)C2=N)cc1Cl | -3% | -2%
CC(C)c1ccc(NC(=O)C[n+]2ccn(C3=C([O-])c4ccccc4C3=O)c2)cc1 | -16% | 5%
O=S(=O)(/C=C/c1ccccc1)NC1CCCCCC1 | 0% | -2%
NNC(=O)c1snnc1-c1ccccc1 | -10% | i
CC1Cc2ccccc2N1C(=O)COC(=O)c1ccco1 (stereo not given) | -16% | -1%
O=C(NCCS(=O)(=O)NC1CCCC1)c1ccc(F)cc1 | -6% | i

Laid out differently: entries from further up.
| Compound | VACV Venus inh | Vaccinia mCherry |
| --- | --- | --- |
| Cc1ccc(S(=O)(=O)CCC(=O)Nc2cccc([N+](=O)[O-])c2)cc1 | -23% | -21% |
| Cc1ccc(C)c(N2CCN(C(=O)c3csc4ccccc34)CC2)c1 | -26% | -15% |
| CC(C)c1nc(SCC(=O)Nc2nccs2)c2ccccc2n1 | -19% | 27% |
| Cc1ccc(S(=O)(=O)N2C[C@H]3N(C(=O)OC(C)C)N(C(=O)OC(C)C)C[C@H](OC(=O)NC4CC4)[C@@]3(O)C2)cc1 | -16% | -12% |
| Cc1ccc(SCCNC(=O)/C=C/c2ccc(Cl)cc2)cc1 | -8% | -8% |
| O=c1[nH]c(=S)[nH]c2n[nH]nc12 | -5% | -5% |
| CCc1nc2ccc(C(=O)N3CCN(c4ccccc4)CC3)cn2c1N(CCC(C)C)CCN(C)C | -4% | 10% |
| Cc1[nH]c2ccccc2c1C(=O)C(=O)N1CC=C(c2ccccc2)CC1 | -13% | ? |
| COC(=O)c1sc(NC(=O)C2c3ccccc3Oc3ccccc32)c(C(=O)OC)c1C | -2% | -2% |
| COc1ccc(N2CC(O)=C(c3nc(-c4ccc(F)cc4)cs3)C2=N)cc1Cl | -3% | -2% |
| CC(C)c1ccc(NC(=O)C[n+]2ccn(C3=C([O-])c4ccccc4C3=O)c2)cc1 | -16% | 5% |
| O=S(=O)(/C=C/c1ccccc1)NC1CCCCCC1 | 0% | -2% |
| NNC(=O)c1snnc1-c1ccccc1 | -10% | i |
| CC1Cc2ccccc2N1C(=O)COC(=O)c1ccco1 (stereo not given) | -16% | -1% |

(list continues)
SMILES | VACV Venus inh | Vaccinia mCherry
N#CC(C#N)=C1C=CC=CN1/C(=C\c1ccco1)C(=O)c1ccc(Br)cc1 | ? | ?
C=CCN1C(=O)c2ccc(C(=O)N(C)CC(=O)Nc3ccccc3Cl)cc2C1=O | -19% | -21%
CCOC(=O)C1CCN(C(=O)c2ccccc2NS(=O)(=O)c2ccc(F)cc2)CC1 | -8% | i
CCCCC[C@@H]1C=C(C(=O)O)[C@H](c2ccc(Cl)c(Cl)c2)N1S(=O)(=O)c1ccc(C)cc1 | -16% | -7%
CCOC(=O)C(CCc1ccccc1)NC(C)C(=O)N1CCCC1C(=O)O (stereo not given) | -11% | i
CCCCNC(=O)C(=O)NCc1ccncc1 | -2% | -13%
O=C(CC1S/C(=N/N=C/c2cccs2)NC1=O)Nc1ccc(Cl)c(Cl)c1 (stereo not given) | -14% | -1%
COc1ccc(CNC(=O)N2CCN(c3cccc(Cl)c3)CC2)cc1OC | -10% | -7%
COc1ccc(-c2cc3nc(C)c(CCC(=O)NC(C)c4ccccc4)c(C)n3n2)c(OC)c1 (stereo not given) | 1% | -4%
COc1cc(-c2nc3ccc4ccccc4c3c3c2CCC3)cc(OC)c1O | ? | ?
CCn1ccnc1CNC(=O)C1CCC(=O)N(Cc2ccccc2F)C1 (stereo not given) | -7% | -8%
Cc1c(CN2CCC(n3nccc3NC(=O)C3CC3)CC2)[nH]c2ccccc12 | -21% | i
COc1ccc(-c2nc3c(c(SC)n2)Cc2c(CO)cnc(C)c2O3)cc1 | 72%[activator] | -5%
CCN(C(=O)N1CCOCC1)c1ccccc1C | -2% | -13%
CCOC(=O)c1cc2c(c(CCO)n1)[C@H](CCO)N(S(=O)C(C)(C)C)C2 (stereo not given in full) | -3% | -5%
COc1cc(OC)cc(C(=O)N2CCN(S(=O)(=O)c3ccc(Cl)s3)CC2)c1 | -12% | -21%
O=C(NCCc1ccccc1)c1ccc2c(c1)N(Cc1c(F)cccc1Cl)C(=O)CS2 | -21% | -16%
CCOC(=O)Cc1ccc(NC(=O)N2CCC(CN3CCC(C)CC3)CC2)cc1 | 2% | 2%
O=C(O)c1ccc(-n2c(/C=C\c3ccc(O)cc3)nc3ccccc3c2=O)cc1 | -6% | -5%
Cc1cccc(-c2cc(NC=O)c3ncc(-c4cccc(C(=O)N(C)C)c4)n3c2)c1 | -1% | ?
N=C(N)SCc1cn2ccccc2n1 | -2% | -8%
O=C(c1c(Cl)cccc1Cl)N1CCN(c2cccc3[nH]ccc23)CC1 | -5% | ?
COc1ccc(S(=O)(=O)N(CC(=O)Nc2ccc(Br)cc2)Cc2ccccc2)cc1 | -13% | -27%
CCCCN(C)C1CCN(C(=S)Nc2cccc(OC)c2)CC1 | 4% | -3%
NC(=O)C1CCN(CC(=O)Nc2ccc3c(c2)OCO3)CC1 | 5% | -10%
CCOC(=O)c1c(C)[nH]c(C)c1S(=O)(=O)N1CCCC(C(=O)N2CCN(c3ccc(Cl)cc3)CC2)C1 (stereo not given) | -27% | -26%
CN(CC(=O)Nc1ccc([N+](=O)[O-])cc1Br)Cc1c(F)cccc1Cl | -2%[7.34 µM] | -11%[7.34 µM]

Compound activity from PubChem BioAssay.
